OX1R FRET antag: antagonists of human orexin 1 receptor (OX1R) | 330,000 compounds, 1.8% hits | AID 485270 | inhibition, % at 6.6 µM | O43613 | OX1R-expressing cells, FRET antagonist read-out; in the data active = inhibition mostly above about 38%, no sharp cut-off; inactive = mostly below about 40%;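 also: 0% = agonist challenge alone and 100% = reference antagonist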
Target sequence (O43613 whole entry, looked up): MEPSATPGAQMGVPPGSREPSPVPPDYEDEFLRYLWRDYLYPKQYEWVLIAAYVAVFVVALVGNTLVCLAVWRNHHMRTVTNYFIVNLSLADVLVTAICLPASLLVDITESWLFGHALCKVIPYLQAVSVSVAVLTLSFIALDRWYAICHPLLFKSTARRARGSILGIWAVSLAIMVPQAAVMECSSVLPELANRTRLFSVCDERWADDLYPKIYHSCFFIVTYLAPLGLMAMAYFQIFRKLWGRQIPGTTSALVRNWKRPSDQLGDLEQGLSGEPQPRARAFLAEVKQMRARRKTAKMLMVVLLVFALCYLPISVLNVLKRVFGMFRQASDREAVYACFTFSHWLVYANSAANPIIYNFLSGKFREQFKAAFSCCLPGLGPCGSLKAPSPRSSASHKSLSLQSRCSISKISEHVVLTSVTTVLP
STK33 kinase inh: human STK33 kinase inhibition | purified STK33, MBP phosphorylation, ADP-Glo luminescence | inhibition, % at 10 µM | 320,000 compounds, 0.073% hits | AID 2661 | Q9BYT3;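 active = inhibition at or above 25%, using the most active replicate where run in duplicate; inactive = inhibition below 25%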
Target sequence (Q9BYT3 whole entry, looked up): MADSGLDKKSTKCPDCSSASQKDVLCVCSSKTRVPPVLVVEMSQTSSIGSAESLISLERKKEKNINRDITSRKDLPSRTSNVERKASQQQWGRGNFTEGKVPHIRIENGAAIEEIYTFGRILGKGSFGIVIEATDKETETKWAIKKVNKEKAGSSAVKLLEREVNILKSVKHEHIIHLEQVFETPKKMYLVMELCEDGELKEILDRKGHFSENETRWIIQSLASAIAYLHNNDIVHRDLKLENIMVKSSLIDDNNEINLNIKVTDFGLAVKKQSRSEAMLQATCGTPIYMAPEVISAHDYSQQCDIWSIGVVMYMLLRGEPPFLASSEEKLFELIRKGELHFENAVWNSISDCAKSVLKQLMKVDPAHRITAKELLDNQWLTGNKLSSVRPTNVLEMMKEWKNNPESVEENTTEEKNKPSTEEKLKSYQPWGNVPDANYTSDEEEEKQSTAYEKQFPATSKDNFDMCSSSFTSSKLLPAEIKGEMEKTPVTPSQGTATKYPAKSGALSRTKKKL
The depositor's hits bear a star.

For COc1ccc(N(C(=O)c2ccco2)C(C(=O)NC2CCCC2)c2cccs2)c(OC)c1 (stereo not given) the results were OX1R FRET antag 21.5 and STK33 kinase inh -1.6.
Cc1cc(Br)cc(C)c1NC(=S)NC(=O)CC(C)C was read as OX1R FRET antag 12.3 and STK33 kinase inh -2.0.
`Cc1ccc(C(=O)NCCc2c[nH]c3ccccc23)s1` gave OX1R FRET antag 22.2 and STK33 kinase inh 0.0.
O=c1oc2ccc(Cl)cc2cc1-c1ccccc1 was read as OX1R FRET antag -1.2 and STK33 kinase inh 0.2.
For COc1ccc(CN(C)CCc2ccccn2)c(OC)c1OC the results were OX1R FRET antag 4.6 and STK33 kinase inh 0.1.
For CCN1C(=O)CC(N2CCN(c3ccc(C(=O)c4ccncc4)cc3)CC2)C1=O (stereo not given) the results were OX1R FRET antag 16.8 and STK33 kinase inh -0.2.
`COc1ccc(CN2CCCCC2C(=O)Nc2ccc(OC)c(OCC(C)C)c2)cc1OC` (stereo not given) gave OX1R FRET antag 13.1 and STK33 kinase inh -0.7.
Cc1csc(SCC(=O)Nc2cc(C(C)(C)C)nn2-c2ccccc2)n1 was read as OX1R FRET antag 19.7 and STK33 kinase inh -1.1.
`O=C(c1ccc(S(=O)(=O)N2CCOCC2)cc1)N(c1ccccc1)C1C=CS(=O)(=O)C1` (stereo not given) gave OX1R FRET antag 11.5 and STK33 kinase inh -1.0.
Screening O=C(COc1ccc(F)cc1F)Nc1cccnc1 returned OX1R FRET antag 5.6 and STK33 kinase inh -1.9.
For Cn1c(Nc2ccc(Cl)cc2)cc(=O)n(C)c1=O the results were OX1R FRET antag 9.4 and STK33 kinase inh -1.4.
For C#CCNC(=O)C1=C[C@@H](c2ccc(C#C)cc2)C[C@@H](OCCCCO)O1 the results were OX1R FRET antag 15.6 and STK33 kinase inh 0.0.
For O=C(COC(=O)CCc1ccc(S(=O)(=O)N2CCOCC2)cc1)Nc1ccc(Cl)cn1 the results were OX1R FRET antag 20.2 and STK33 kinase inh -2.9.
Screening CC(NC(=O)COC(=O)c1cc(=O)[nH]c2ccccc12)c1ccccc1 (stereo not given) returned OX1R FRET antag 9.2 and STK33 kinase inh -0.4.
For COc1ccc(-n2nc(C(=O)NCC(=O)NCc3ccco3)c3ccccc3c2=O)c(OC)c1 the results were OX1R FRET antag 9.5 and STK33 kinase inh -1.5.
Screening CCn1c(SCc2ccc(F)cc2)nc2ccccc2c1=O returned OX1R FRET antag 20.7 and STK33 kinase inh -0.8.
For Cn1c(=O)c(=O)n(C)c2cc(S(=O)(=O)N3CCCC3C(=O)NCc3cccnc3)ccc21 (stereo not given) the results were OX1R FRET antag 4.6 and STK33 kinase inh -0.9.
For CCOC(=O)CNCCC(=O)c1ccc(Br)cc1 the results were OX1R FRET antag 21.1 and STK33 kinase inh 0.6.
`CCn1c(SC2CCOC2=O)nnc1-c1ccc(Cl)cc1` (stereo not given) gave OX1R FRET antag 1.6 and STK33 kinase inh -0.2.
For Cc1cc(C)cc(NC(=O)c2ccc(S(=O)(=O)N(C)CC3CCCO3)cc2)c1 (stereo not given) the results were OX1R FRET antag 13.5 and STK33 kinase inh -3.2.
For Clc1ccc(N2CCCCCC2)nn1 the results were OX1R FRET antag 8.6 and STK33 kinase inh -0.6.
COc1ccccc1N(CC(=O)NCc1ccco1)S(C)(=O)=O was read as OX1R FRET antag 14.8 and STK33 kinase inh 0.8.
Screening NS(=O)(=O)c1ccc(NC(=O)c2ccc(CSc3ccccc3)o2)cc1 returned OX1R FRET antag 5.2 and STK33 kinase inh -0.9.
Screening COc1ccccc1NC(=O)C(=O)NNC(=O)c1ccco1 returned OX1R FRET antag 28.8 and STK33 kinase inh -0.3.
`COc1cccc(CNC(=O)CSc2ccc(-c3ccncc3)nn2)c1` gave OX1R FRET antag 4.3 and STK33 kinase inh 1.3.
`O=C(NCc1ccco1)c1sc(=S)n2c1[nH]c(=O)c1ccccc12` gave OX1R FRET antag 49.8* and STK33 kinase inh 0.1.
For O=C(c1ccc(COc2c(F)c(F)cc(F)c2F)o1)N1CCN(c2ccc(Cl)cc2)CC1 the results were OX1R FRET antag 0.8 and STK33 kinase inh -2.1.
Screening COc1ccccc1-n1cc(CN2CCN(C3CCCCC3)C(CCO)C2)cn1 (stereo not given) returned OX1R FRET antag -1.6 and STK33 kinase inh -4.7.
`Cc1ccccc1NC(=O)CCCNC(=O)c1ccc(Cl)cc1` gave OX1R FRET antag 14.7 and STK33 kinase inh 0.1.
For O=[N+]([O-])c1ccccc1S(=O)(=O)N1CCN(Cc2ccc3c(c2)OCO3)CC1 the results were OX1R FRET antag 16.6 and STK33 kinase inh -1.2.
Screening CCOC(=O)C1=NOC(CN(c2ccccc2)S(=O)(=O)c2ccc(Cl)cc2)C1 (stereo not given) returned OX1R FRET antag 19.7 and STK33 kinase inh -0.4.
For CC(C)(C)n1cnc2cc(NS(=O)(=O)c3ccc(Br)cc3)ccc21 the results were OX1R FRET antag 59.4 and STK33 kinase inh 0.2.
COc1cccc(C2NC(CC(C)C)(C(=O)O)C3C(=O)N(Cc4ccccc4)C(=O)C23)c1O (stereo not given) was read as OX1R FRET antag 9.0 and STK33 kinase inh -0.4.
CC(=O)c1cccc(NC(=O)NCCc2c[nH]c3ccccc23)c1 was read as OX1R FRET antag 22.3 and STK33 kinase inh -0.5.
Cc1nc([N+](=O)[O-])c(C(=O)OCc2ccccc2Br)n1C was read as OX1R FRET antag 24.5 and STK33 kinase inh 0.9.
For COc1ccccc1C(c1nnnn1C(C)(C)C)N1CCN(C(=O)c2ccco2)CC1 (stereo not given) the results were OX1R FRET antag 35.4 and STK33 kinase inh -1.9.
Screening CCOc1ccc(-n2c(SCC(=O)Nc3ccccc3CC)nc3n[nH]c(C)c3c2=N)cc1 returned OX1R FRET antag 11.9 and STK33 kinase inh 0.0.
For O=C(O)CCNS(=O)(=O)c1ccc(Oc2ccccc2Cl)cc1 the results were OX1R FRET antag 8.8 and STK33 kinase inh -0.9.
For COc1ccc(C(CNC(=O)c2cccc(S(=O)(=O)Nc3ccccc3OC)c2)N2CCCC2)cc1 (stereo not given) the results were OX1R FRET antag 17.4 and STK33 kinase inh 0.5.
`C=CCOc1ccc2nnc(C)n2n1` gave OX1R FRET antag 3.7 and STK33 kinase inh -0.5.
O=C(/C=C/c1ccccc1)NC(N1CCOCC1)C(Cl)(Cl)Cl (stereo not given) was read as OX1R FRET antag 12.3 and STK33 kinase inh -1.5.
For Cc1cc(OCC(=O)N(C)C2CCCCC2)ccc1Cl the results were OX1R FRET antag 26.7 and STK33 kinase inh -1.9.
`COc1ccccc1NC(=S)NC(=O)c1ccc(Cn2cc(Br)cn2)cc1` gave OX1R FRET antag 15.5 and STK33 kinase inh -0.8.
CC1CCc2nn(CC(=O)N3CCc4ccccc43)cc2C1 (stereo not given) was read as OX1R FRET antag 14.4 and STK33 kinase inh -0.4.
`CC(=O)c1ccc(-n2nnnc2SCC(=O)N2CCN(C(=O)c3ccco3)CC2)cc1` gave OX1R FRET antag 30.9 and STK33 kinase inh -0.3.
For Cn1c(SCC(=O)Nc2ccc3c(c2)OCCO3)nnc1-c1ccco1 the results were OX1R FRET antag 1.6 and STK33 kinase inh 0.1.
CCOc1ccc(Oc2c(/C=N/NC(=O)C3CC3)c(C)nn2-c2ccccc2)cc1 was read as OX1R FRET antag -2.5 and STK33 kinase inh 0.0.
Screening CC1CCN(C(=O)CCCOc2ccc(Cl)cc2)CC1 returned OX1R FRET antag 31.8 and STK33 kinase inh -0.7.
`O=C(O)c1cc(NCc2cccs2)ccc1N1CCOCC1` gave OX1R FRET antag 4.6 and STK33 kinase inh 0.5.
Screening COc1ccc(S(=O)(=O)N(CCc2ccccc2)CC(=O)O)cc1Cl returned OX1R FRET antag 13.2 and STK33 kinase inh -1.4.
`CC(=O)Nc1ccc2c(c1)nc(CCN1CCN(C)CC1)n2C` gave OX1R FRET antag 6.2 and STK33 kinase inh -1.1.
Screening N/C(Cn1nnc(-c2ccccc2)n1)=N\O returned OX1R FRET antag 7.8 and STK33 kinase inh -1.5.
For COc1cccc(/C(O)=C2/C(=O)C(=O)N(c3cc(C)on3)C2c2cccs2)c1 (stereo not given) the results were OX1R FRET antag 4.1 and STK33 kinase inh 1.0.
`CC1CCN(c2ncccc2C(=O)O)CC1` gave OX1R FRET antag 13.5 and STK33 kinase inh -1.9.
Screening c1nc(COc2nsnc2N2CCOCC2)cs1 returned OX1R FRET antag 6.0 and STK33 kinase inh 0.3.
Screening CC(=O)C1=C(O)CC(C)(C)CC1=NCCc1nc2ccccc2[nH]1 returned OX1R FRET antag 2.2 and STK33 kinase inh -0.5.
For CCOc1cccc(CN2CCCC(C(=O)c3cc(Cl)ccc3OC)C2)c1O (stereo not given) the results were OX1R FRET antag 6.9 and STK33 kinase inh -1.0.
`CC(OC(=O)c1nccnc1N)C(=O)Nc1ccc(S(=O)(=O)N2CCCC2)cc1` (stereo not given) gave OX1R FRET antag 23.9.
For CC(C)CN1CCN(Cc2c[nH]c3ccccc23)CC1CCO (stereo not given) the results were OX1R FRET antag 9.8.
CCCOc1ccc(C(=O)Nc2ccc(NC(=O)c3cccs3)cc2)cc1 was read as OX1R FRET antag 7.2 and STK33 kinase inh -1.0.
`COc1ccccc1OC(=O)C1CC(=O)N(c2ccc(Cl)cc2)C1` (stereo not given) gave OX1R FRET antag -1.4 and STK33 kinase inh 6.1.
`O=C(Cc1cccs1)Nc1nc(-c2ccc(F)c(F)c2)cs1` gave OX1R FRET antag 14.3 and STK33 kinase inh -0.3.
O=C(CN(Cc1ccccc1Cl)C(=O)c1csnn1)NCc1ccccc1 was read as OX1R FRET antag 15.6 and STK33 kinase inh -1.0.
Screening O=C(Cc1ccc2c(c1)OCCO2)N1CCN(c2ccccc2)CC1 returned OX1R FRET antag 10.7 and STK33 kinase inh -1.0.
COCCCn1c(=S)[nH]c2sc3c(c2c1=O)CCCC3 was read as OX1R FRET antag 14.4 and STK33 kinase inh -0.7.
Cc1onc(-c2ccccc2)c1CNS(=O)(=O)c1ccccc1 was read as OX1R FRET antag 5.5 and STK33 kinase inh 1.6.
Screening CNS(=O)(=O)c1cccc(C(=O)OCc2cc(=O)oc3c(C)c(O)ccc23)c1 returned OX1R FRET antag 24.0 and STK33 kinase inh 0.2.
Cc1ccc(C(=O)OCC(=O)NC(=O)c2ccccc2)o1 was read as OX1R FRET antag 10.8 and STK33 kinase inh -1.4.
COc1ccc(S(=O)(=O)c2c(O)c3ccc(C(=O)Nc4ccc(F)cc4F)cc3[nH]c2=O)cc1 was read as OX1R FRET antag 8.4 and STK33 kinase inh -0.9.
`COc1c(C)cc(C(=O)C2CCCN(S(=O)(=O)c3c(C)noc3C)C2)cc1C` (stereo not given) gave OX1R FRET antag 49.1 and STK33 kinase inh 0.3.
For O=C(CN1C(=O)NC2(CCCC2)C1=O)Nc1ccccc1-c1ccccc1 the results were OX1R FRET antag 12.7 and STK33 kinase inh -1.2.
Cc1cc(-c2nc3cccnc3s2)ccc1NS(=O)(=O)c1cccs1 was read as OX1R FRET antag 12.5 and STK33 kinase inh -2.9.
`CC(C)CC1c2[nH]c3ccccc3c2CCN1C(=O)c1cnccn1` (stereo not given) gave OX1R FRET antag 14.6 and STK33 kinase inh -1.0.
O=C(O)c1ccc(NC(=O)c2cn(-c3ccccc3)nc2-c2ccc(Br)cc2)cc1 was read as OX1R FRET antag 30.5 and STK33 kinase inh -3.5.
Screening O=C(O)c1cnc(-c2ccccc2)nc1Sc1ccccc1Cl returned OX1R FRET antag 56.0* and STK33 kinase inh -1.4.
Screening CC(C)(C)[C@H]1C=C(C(=O)N2CCN(Cc3ccc4c(c3)OCO4)CC2)O[C@@H](OCCCCO)C1 returned OX1R FRET antag 23.5 and STK33 kinase inh 0.2.
Cc1cc(C(=O)COC(=O)CNC(=O)c2ccc(Cl)c(Cl)c2)c(C)n1Cc1ccco1 was read as OX1R FRET antag 7.5 and STK33 kinase inh -2.8.
O=C(CSc1ccccc1)Nc1cccc(NC(=O)c2ccco2)c1 was read as OX1R FRET antag 28.3 and STK33 kinase inh 0.6.
Screening CCCn1c(=O)c2c(nc3n2CCS3)n(C)c1=O returned OX1R FRET antag 15.9 and STK33 kinase inh 0.8.
O=C(NC1CC2CCCC(C1)N2C(=O)NCc1ccccc1)C1CC1 (stereo not given) was read as OX1R FRET antag 6.4 and STK33 kinase inh -2.0.

Among those listed so far, these have a nitro group on carbon.
For O=[N+]([O-])c1ccccc1S(=O)(=O)N1CCN(Cc2ccc3c(c2)OCO3)CC1 the results were OX1R FRET antag 16.6 and STK33 kinase inh -1.2.
Cc1nc([N+](=O)[O-])c(C(=O)OCc2ccccc2Br)n1C was read as OX1R FRET antag 24.5 and STK33 kinase inh 0.9.

(further entries)
`COc1cccc(/C=C/C(=O)Nc2ccccc2N2CCOCC2)c1` gave OX1R FRET antag 32.5 and STK33 kinase inh -0.9.
COc1ccc(-n2nc(C(=O)NCC(=O)N3CCCCC3)c3ccccc3c2=O)cc1 was read as OX1R FRET antag 29.5 and STK33 kinase inh -2.2.
Cc1cc(C)nc(NS(=O)(=O)c2ccc(NC(=O)CN3C(=O)c4ccccc4C3=O)cc2)n1 was read as OX1R FRET antag 8.4 and STK33 kinase inh -0.5.
`COc1ccc(/C=N/NS(=O)(=O)c2ccccc2)cc1OC` gave OX1R FRET antag -0.4 and STK33 kinase inh -0.2.

Sorted by SMILES length (lowest first): part of the list above.
Screening CCCn1c(=O)c2c(nc3n2CCS3)n(C)c1=O returned OX1R FRET antag 15.9 and STK33 kinase inh 0.8.
`COc1cccc(/C=C/C(=O)Nc2ccccc2N2CCOCC2)c1` gave OX1R FRET antag 32.5 and STK33 kinase inh -0.9.
O=C(NC1CC2CCCC(C1)N2C(=O)NCc1ccccc1)C1CC1 (stereo not given) was read as OX1R FRET antag 6.4 and STK33 kinase inh -2.0.
Cc1cc(C)nc(NS(=O)(=O)c2ccc(NC(=O)CN3C(=O)c4ccccc4C3=O)cc2)n1 was read as OX1R FRET antag 8.4 and STK33 kinase inh -0.5.

High-throughput results deposited in PubChem BioAssay by several laboratories.

Some of the compounds tested, and most or all hits are left out here.
